GLA inh pH 4.5: qHTS Assay for Inhibitors of Human alpha-Galactosidase at pH 4.5. 230,000 tested, under 10 active. purified enzyme, 4-MU-alpha-Gal fluorescence, pH 4.5. activity change, negative = inhibition, % at 105 µM; inconclusive = small, poorly fitted or top-dose-only inhibition, or a rising curve; inactive = flat fitted curve, though single readings scatter; no compound was filed as active;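 further: 0% = full activity with enzyme and -100% = basal without enzyme; dose as in the result columns while the protocol names 77 µM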
Rango-impB inh: qHTS Assay for Inhibitors of Rango (Ran-regulated importin-beta cargo) - Importin beta complex formation; Importin subunit beta-1 (Homo sapiens), Q14974; Rango CFP/YFP FRET sensor + importin beta, 45 min; Potency, µM (series often up to 92.2 µM), without a hit: top-dose inhibition of complex formation; 0.031% of 340,000 active; active = rising FRET ratio curve, often small or poorly fitted; inconclusive = mostly compound fluorescence or quenching in the first reads; inactive = flat curves in all reads;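 further: potency means the concentration at half of the fitted maximal effect; 0% = DMSO wells and 100% = buffer wells lacking importin beta; nearly all actives have a fitted effect of over 15% in size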
Target sequence (Q14974 whole entry, looked up): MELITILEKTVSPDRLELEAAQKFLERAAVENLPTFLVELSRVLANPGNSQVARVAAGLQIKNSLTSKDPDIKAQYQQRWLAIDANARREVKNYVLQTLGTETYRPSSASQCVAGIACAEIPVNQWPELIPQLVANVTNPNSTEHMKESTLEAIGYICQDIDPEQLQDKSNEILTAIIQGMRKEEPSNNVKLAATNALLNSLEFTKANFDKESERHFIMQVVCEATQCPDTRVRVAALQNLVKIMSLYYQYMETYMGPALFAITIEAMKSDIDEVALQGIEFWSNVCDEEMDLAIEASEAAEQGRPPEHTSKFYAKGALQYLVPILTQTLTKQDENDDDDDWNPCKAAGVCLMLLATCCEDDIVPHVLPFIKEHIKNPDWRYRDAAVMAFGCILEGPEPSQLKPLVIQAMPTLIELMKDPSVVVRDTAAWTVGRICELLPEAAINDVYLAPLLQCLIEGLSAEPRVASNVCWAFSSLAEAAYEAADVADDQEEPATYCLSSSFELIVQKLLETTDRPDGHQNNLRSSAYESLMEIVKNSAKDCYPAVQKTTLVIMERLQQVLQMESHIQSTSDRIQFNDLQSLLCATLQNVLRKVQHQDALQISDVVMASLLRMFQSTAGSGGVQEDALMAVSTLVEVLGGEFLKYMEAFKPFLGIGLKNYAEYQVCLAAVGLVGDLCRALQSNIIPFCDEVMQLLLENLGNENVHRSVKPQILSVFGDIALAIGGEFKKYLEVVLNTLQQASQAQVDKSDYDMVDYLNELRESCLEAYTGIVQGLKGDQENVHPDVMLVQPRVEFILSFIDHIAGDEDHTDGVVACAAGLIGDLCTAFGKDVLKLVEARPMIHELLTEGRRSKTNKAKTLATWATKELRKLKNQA
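FRET biosensor Rango (snurportin 1 IBB between N-terminal EYFP and C-terminal Cerulean), 50 nM in PBS/1 mM DTT/0.02% Tween-20/0.1% BSA, preincubated 5 min RT with compound; 0.125 microM importin beta added, 45 min RT, CFP/YFP FRET ratio read.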
Rango release inh: qHTS Assay for Inhibitors of RanGTP induced Rango (Ran-regulated importin-beta cargo) - Importin beta complex dissociation | 0.071% of 340,000 active | Potency, µM (top dose mostly 46.1 µM), without a hit: at the top dose activity change, negative = inhibition | Biochemical FRET Rango-importin beta, RanGTP-induced dissociation | AID 540253, 2011 | Snurportin-1 (Homo sapiens) + GTP-binding nuclear protein Ran (Homo sapiens) + Importin …; active means falling FRET ratio curve, often poorly fitted, with flat reads before Ran was added; inconclusive means other falling curves, or compound fluorescence or quenching; inactive means flat or rising ratio curve;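 further: potency means the concentration at half of the fitted maximal effect; % of control where 0% means no effect; nearly all actives have a fitted effect of over 45% in size; -100% = wells without RanGTP and RCC1; the record marks most hits as doubtful in a second field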
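FRET read at 45 min, room temperature: inhibitors block the CFP/YFP signal rise when RanGTP (0.6 uM Ran, 2 mM GTP, 0.2 uM RCC1) frees Rango (0.1 uM) from importin beta (0.25 uM). Pre-read after 5 min compound exposure flags interference.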
miR-21 FLuc: qHTS Assay for Modulators of miRNAs and/orActivators of miR-21 | Potency, µM (doses to about 38.3 µM), without a hit: at the highest dose reporter change, positive = more light | AID 2288, 2010 | HeLa miR-21 FLuc reporter, luciferase, 48 h | 340,000 tested, under 10 active; active = well fitted rising curve with a large enough effect; inconclusive = small, poorly fitted or top-dose-only effect; inactive = no such curve, though single readings can be large or run the other way;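 further: % of control where 0% means no effect; miR-21 action dims this reporter so a rising signal means less miR-21 action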
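Luminescence from a firefly luciferase reporter carrying a miR-21 binding site downstream, stably expressed under a CMV promoter in HeLa cells that make miR-21 endogenously, reports miRNA modulation after 48 h compound exposure up to approximately 40uM final.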
Starred values were filed as active, the others as inactive; ? = inconclusive; . = not tested or not shown; & = joins results of further samples; [ ] = dose if it differs, or a comment.

miR-21 FLuc	Rango release inh	Rango-impB inh	GLA inh pH 4.5	SMILES
-1%	1%	-0.1%	3	Cc1onc(-c2ccccc2)c1C(=O)N/N=C/c1cccc(O)c1
-2%	1%	10%	-9	O=C(COC(=O)c1n[nH]c2ccccc12)c1cc(F)ccc1F
2%	-2%	-3.2%	-29	CCOC(=O)COc1cccc2c(=O)n(CC(=O)N3CCCc4ccccc43)ccc12
.	2%	-2.5%	.	COc1ccc(CCC(=O)OCC(=O)Nc2c(C)n(C)n(-c3ccccc3)c2=O)cc1
2%	0%	-2.6%	.	CN(C)S(=O)(=O)c1cccc(C(=O)OCC(=O)N2CCCC2=O)c1
-38%	-10%	-0.6%	4	COc1ccc2[nH]c3ccc(OC)cc3c2c1
0%	-5%	4.2%	.	O=C(c1cc[n+]([O-])cc1)N1CCCC(N2CCN(c3cccc(C(F)(F)F)c3)CC2)C1 (centres undefined)
6%	-4%	1.2%	.	Cc1ccc(C23CC4CC(CC(NC(=O)NN)(C4)C2)C3)cc1
1%	1%	1.0%	.	COC(=O)c1ccc(NC(=O)CSc2nncn2-c2cccnc2)cc1
9%	4%	-6.0%	-9	COc1ccc(Nc2nc3nonc3nc2N2CCCCC2)cc1
.	14%	-3.2%	.	CC(C)CCN(C(=O)c1ccc(N2CCCC2=O)cc1)c1c(N)n(Cc2ccccc2)c(=O)[nH]c1=O
-1%	1%	-1.2%	.	COc1cccc(C(O)c2nc3ccccc3n2C)c1 (centres undefined)
-2%	4%	2.4%	-4	Cc1ccc(NC(=O)C(C)N2CCCC2)cc1Cl (centres undefined)
6%	1%	1.7%	0	COc1cc2nc(Cl)nc(NCCO)c2cc1OC
-3%	0%	-3.3%	.	O=C(COC(=O)c1ccco1)c1ccc(F)cc1
-1%	4%	-0.9%	-4	CCOc1cc(C(=O)Nc2ccccc2F)cc(Br)c1OCC
.	-1%	0.6%	.	Cc1cc(NC(=O)COC(=O)c2ccc([N+](=O)[O-])cc2Cl)no1
-12%	-7%	-1.3%	-2	CCOC(=O)N1CCC(N2CCCC(C(=O)c3cc(C)c(OC)c(C)c3)C2)CC1 (centres undefined)
7%	-11%	7.0%	-6	O=C(Nc1ccc(Cl)c(Cl)c1)Nc1nccs1
-1%	1%	-1.4%	-2	O=[N+]([O-])c1cc(Cl)ccc1Oc1ccc(-c2nnco2)cc1
-1%	2%	0.7%	-11	Cc1ccc(S(=O)(=O)N(C)C)cc1NC(=O)c1c(-c2c(F)cccc2Cl)noc1C
-2%	-16%	0.0%	-2	COc1ccccc1NS(=O)(=O)c1ccc(Cl)c(NC(=O)c2sc3cc(Cl)ccc3c2Cl)c1
-10%	0%	2.9%	3	COc1ccc2cc(/C=N/O)c(Cl)nc2c1
-1%	-4%	-1.3%	4	CCCn1c(SCC(=O)Nc2c(C)cccc2CC)nnc1C(C)C
8%	22%	-2.6%	2	CCN(CC)c1ccc(NS(=O)(=O)c2ccc(OC)cc2)cc1
-3%	-1%	1.1%	8[21.1 µM]	O=C1CSC(c2cccnc2)N1c1ccc(Cl)cc1 (centres undefined)
-8%	-6%	0.2%	-2	O=C(Nc1cccc(C(F)(F)F)c1)c1ccccc1NC(=O)C1CCCCC1
-3%	-6%	0.7%	1	CCCNC(=O)NC(=O)CSc1nc(C)cs1
-50%	8%	4.0%	.	Cc1cc(OCCN2CCOCC2)ccc1Cl
-9%	-3%	-1.0%	.	COc1ccc(CN2CCNC(=O)C2CC(=O)NC2CCCCCCC2)cc1OC (centres undefined)
1%	-20%	?	-12	Cc1ccc2cccc(N=Cc3c(C)[nH]n(-c4ccccc4)c3=O)c2n1
-30%	-10%	-4.7%	-8	CC(=O)CN1Cc2ccccc2/C1=N\C(=O)Nc1ccccc1
-15%	26%	3.6%	.	CN(CC(=O)Nc1ccc(OC(F)(F)F)cc1)S(=O)(=O)c1cnc[nH]1
0%	-13%	-0.3%	.	O=C(Nc1ccc(S(=O)(=O)N2CCCCC2)cc1)c1ccccc1F
.	1%	?	.	C#CCOCCOCCOCCNc1nc(N2CCN(C(=O)[C@H](CCCCN)n3cc(CN)nn3)CC2)nc(N2CCN(C(=O)[C@H](CCC(=O)O)n3cc([C@@H](N)CCSC)nn3)CC2)n1
13%&-9%	-2%	0.3%	.	O=C(Nc1ccc2c(c1)CCCN2C(=O)c1cccs1)c1ccccc1
7%	23%	-0.5%	-13	Cc1ccsc1CN1CC(=O)N(c2c(C)cccc2C)C1=S
-1%	-1%	-5.4%	?	O=C(NC(=S)N(Cc1ccccc1)Cc1ccccc1)C1CCCCC1
-38%	?	?	-22	COC1=C/C(=C/c2c(N)n3nc(-c4ccc(C)cc4)sc3nc2=O)C=CC1=O
-1%	1%	5.3%	-17	Cc1onc(-c2ccccc2Cl)c1C(=O)Nc1ccc(S(=O)(=O)N2CCCC2)cc1
-5%	10%	-3.6%	-4	O=C(Nc1nc2cc3c(cc2s1)OCCO3)c1cccc(N2C(=O)CCC2=O)c1
.	15%	2.2%	.	Cc1ccc(C(=O)OCc2nc3ccsc3c(=O)[nH]2)o1
11%	-3%	4.0%	.	COc1ccc(Nc2nnc(-c3ccc(C(=O)NCCO)cc3)c3ccccc23)cc1
-3%	-9%	-3.1%	4	CCc1nnc(NC(=O)CSc2nc3c(c(=O)n2CC)SC(C)C3)s1 (centres undefined)
21%	4%	1.5%	0	O=C(NCc1ccccn1)C1CCN(C(=O)c2cc3sccc3n2Cc2ccc(F)cc2)CC1
-1%	10%	4.1%	.	COc1ccc2[nH]c(C)c(CN3CCC(C)CC3)c(=O)c2c1
3%	4%	2.9%	.	O=C(N/N=C/c1ccco1)c1cc(-c2ccccc2)nc2ccccc12
-5%	2%	1.0%	.	COc1ccc(N(C(=O)CNC(=O)c2ccco2)C(C(=O)NCC2CCCO2)c2ccccc2)c(OC)c1 (centres undefined)
.	-13%	4.6%	.	COC(=O)/C(=C\c1c(OC)cc(OC)cc1OC)C(=O)c1ccc2c(c1)OCO2
20%	?	?	-17	CN(C)c1ccc(/C=C(/C(=O)c2ccc(Cl)cc2Cl)n2cncn2)cc1
.	3%	-3.9%	.	CCOC(=O)c1cc(C(C)C)sc1NC(=O)COC(=O)c1nccnc1N
-3%	18%	-0.1%	-6	CSc1nnc(CSCc2ccc(Cl)cc2Cl)n1-c1ccccc1
-26%	0%	-5.0%	2	O=C(N/N=C/c1ccc2c(c1)OCO2)c1ccc(NS(=O)(=O)c2cccs2)cc1
.	1%	0.2%	.	CCN1CCN(S(=O)(=O)c2ccc(Cl)c(C(=O)NC3CC3)c2)CC1
.	30%	-2.4%	.	O=C(CN1C(=O)NC2(CCCCCC2)C1=O)Nc1ccc(Cl)c([N+](=O)[O-])c1
4%	-17%	3.4%	.	CNC(=O)C(=O)Nc1cc2c3c(c1)C(C)C(=O)N3CCC2 (centres undefined)
22%	0%	5.3%	-8	CCCCNS(=O)(=O)c1ccc2nc(SCC(=O)Nc3cccc(F)c3)[nH]c2c1
1%	11%	-2.2%	.	COc1ccc2[nH]cc(CCNC(=O)CCC3CCCCC3)c2c1
.	0%	-3.5%	.	CCCCCCN[C@H]1CCC2C3CC=C4C[C@@H](O)CC[C@]4(C)C3CC[C@@]21C (some centres undefined)
2%	?	?	7	Cc1ccc(S(=O)(=O)c2cc3c(=O)n4ccccc4nc3n(Cc3ccco3)c2=N)cc1C

Carrying on.
miR-21 FLuc	Rango release inh	Rango-impB inh	GLA inh pH 4.5	SMILES
.	15%	4.4%	.	CCOC(=O)Cc1csc(NC(=O)CSc2nnc(-c3ccc(NS(=O)(=O)CC)cc3)o2)n1
-1%	-1%	-0.2%	-6	CC(=O)c1cccc(NS(=O)(=O)c2ccc3c(c2)oc(=O)n3C)c1
-9%	-6%	-0.6%	-1	COc1ccc(-c2nnc(SCC(=O)NC(C)c3ccccc3)o2)cc1OC (centres undefined)
6%	-8%	-0.8%	7	Cc1ccc(S(=O)(=O)N2CCCC(CCC(=O)NCc3ccccc3F)C2)s1 (centres undefined)
-1%	18%	3.0%	4	CS(=O)(=O)c1ccc(C(=O)NCc2ccc(F)cc2)cc1
1%	?	?	4	O=C(c1ccccc1C(=O)N1CCN(c2ccccc2)CC1)N1CCN(c2ccccc2)CC1
-2%	-2%	-1.3%	6	Cc1cc(C)n(-c2ncc(C#N)cn2)n1
-16%	-11%	-0.6%	-4	CCN1CCC(NC(=O)Nc2ccccc2C(=O)OC)CC1
.	-12%	1.6%	.	COc1ccccc1/C=N\NC(=O)c1ccc(COc2ccc(C)c(C)c2)o1
-1%	7%	-1.7%	.	O=C(N1CCOCCOc2ccccc2OCCOCC1)C(F)(F)F
-10%	1%	-4.7%	1	CCc1cc2cccc(C)c2nc1SCC(=O)c1ccc(NC(C)=O)cc1
0%	-11%	4.7%	.	COc1ccc(NC(=O)CS(=O)CC(=O)N2CCN(C3CCCC3)CC2)cc1 (centres undefined)

Grouped by structure, the entries above with four or more nitrogen atoms.
miR-21 FLuc	Rango release inh	Rango-impB inh	GLA inh pH 4.5	SMILES
0%	-5%	4.2%	.	O=C(c1cc[n+]([O-])cc1)N1CCCC(N2CCN(c3cccc(C(F)(F)F)c3)CC2)C1 (centres undefined)
1%	1%	1.0%	.	COC(=O)c1ccc(NC(=O)CSc2nncn2-c2cccnc2)cc1
9%	4%	-6.0%	-9	COc1ccc(Nc2nc3nonc3nc2N2CCCCC2)cc1
.	14%	-3.2%	.	CC(C)CCN(C(=O)c1ccc(N2CCCC2=O)cc1)c1c(N)n(Cc2ccccc2)c(=O)[nH]c1=O
-1%	-4%	-1.3%	4	CCCn1c(SCC(=O)Nc2c(C)cccc2CC)nnc1C(C)C
1%	-20%	?	-12	Cc1ccc2cccc(N=Cc3c(C)[nH]n(-c4ccccc4)c3=O)c2n1
-15%	26%	3.6%	.	CN(CC(=O)Nc1ccc(OC(F)(F)F)cc1)S(=O)(=O)c1cnc[nH]1
.	1%	?	.	C#CCOCCOCCOCCNc1nc(N2CCN(C(=O)[C@H](CCCCN)n3cc(CN)nn3)CC2)nc(N2CCN(C(=O)[C@H](CCC(=O)O)n3cc([C@@H](N)CCSC)nn3)CC2)n1
-38%	?	?	-22	COC1=C/C(=C/c2c(N)n3nc(-c4ccc(C)cc4)sc3nc2=O)C=CC1=O
11%	-3%	4.0%	.	COc1ccc(Nc2nnc(-c3ccc(C(=O)NCCO)cc3)c3ccccc23)cc1
-3%	-9%	-3.1%	4	CCc1nnc(NC(=O)CSc2nc3c(c(=O)n2CC)SC(C)C3)s1 (centres undefined)
21%	4%	1.5%	0	O=C(NCc1ccccn1)C1CCN(C(=O)c2cc3sccc3n2Cc2ccc(F)cc2)CC1
20%	?	?	-17	CN(C)c1ccc(/C=C(/C(=O)c2ccc(Cl)cc2Cl)n2cncn2)cc1
.	3%	-3.9%	.	CCOC(=O)c1cc(C(C)C)sc1NC(=O)COC(=O)c1nccnc1N
.	30%	-2.4%	.	O=C(CN1C(=O)NC2(CCCCCC2)C1=O)Nc1ccc(Cl)c([N+](=O)[O-])c1
22%	0%	5.3%	-8	CCCCNS(=O)(=O)c1ccc2nc(SCC(=O)Nc3cccc(F)c3)[nH]c2c1
2%	?	?	7	Cc1ccc(S(=O)(=O)c2cc3c(=O)n4ccccc4nc3n(Cc3ccco3)c2=N)cc1C
.	15%	4.4%	.	CCOC(=O)Cc1csc(NC(=O)CSc2nnc(-c3ccc(NS(=O)(=O)CC)cc3)o2)n1
1%	?	?	4	O=C(c1ccccc1C(=O)N1CCN(c2ccccc2)CC1)N1CCN(c2ccccc2)CC1
-2%	-2%	-1.3%	6	Cc1cc(C)n(-c2ncc(C#N)cn2)n1

The list is partial; count on the stated rates, not on these rows.
